KCNQ2 inh = KCNQ2 channel blockers in CHO-K1 cells – cell-based, FluxOR thallium flux, B-score, primary screen (AID 2156); O88943; 20 min; hits give low values; only compounds with negative scores are shown here; some inactives read as strong as hits; B-score at 10 µM; 310,000 tested, 1.1% active;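 active means fluorescence ratio B-score at most minus 3 library SDs, with starting brightness B-score within 2 library SDs, cut at about -5.5 in these data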
Target sequence (O88943 whole entry, looked up): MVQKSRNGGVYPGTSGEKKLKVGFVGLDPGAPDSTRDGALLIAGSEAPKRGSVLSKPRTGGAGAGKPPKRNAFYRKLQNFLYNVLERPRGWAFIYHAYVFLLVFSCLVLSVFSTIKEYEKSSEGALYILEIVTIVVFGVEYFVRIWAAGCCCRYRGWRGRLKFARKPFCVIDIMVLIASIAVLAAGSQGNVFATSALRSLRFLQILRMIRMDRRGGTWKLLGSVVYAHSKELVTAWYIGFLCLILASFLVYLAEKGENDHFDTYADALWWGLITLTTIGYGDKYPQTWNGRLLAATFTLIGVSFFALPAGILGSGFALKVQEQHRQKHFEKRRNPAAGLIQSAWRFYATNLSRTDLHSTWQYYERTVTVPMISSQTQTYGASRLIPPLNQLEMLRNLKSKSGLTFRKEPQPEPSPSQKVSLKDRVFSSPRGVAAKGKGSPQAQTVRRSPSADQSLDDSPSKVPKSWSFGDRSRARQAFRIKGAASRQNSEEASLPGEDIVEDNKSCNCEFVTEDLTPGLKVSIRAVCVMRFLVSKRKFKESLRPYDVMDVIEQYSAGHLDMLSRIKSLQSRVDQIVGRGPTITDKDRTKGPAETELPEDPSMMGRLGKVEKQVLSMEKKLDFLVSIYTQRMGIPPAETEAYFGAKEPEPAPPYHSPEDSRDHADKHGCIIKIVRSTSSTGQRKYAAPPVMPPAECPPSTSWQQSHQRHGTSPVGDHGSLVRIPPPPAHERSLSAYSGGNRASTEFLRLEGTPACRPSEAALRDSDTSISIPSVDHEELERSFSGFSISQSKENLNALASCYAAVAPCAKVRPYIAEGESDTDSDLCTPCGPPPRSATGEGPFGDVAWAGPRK
KCNQ2 inh baseline = second read-out of KCNQ2 inh, no call of its own (marks repeat the call); B-score; measured here: initial fluorescence intensity artifact check;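 brightness before thallium and not channel activity; 0 = typical well and far values either way flag optical interference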
The depositor's hits bear a star; i = inactive. Some of the compounds tested; rates above refer to the full screens.

Below each SMILES: KCNQ2 inh	KCNQ2 inh baseline
CCC1C(=O)Nc2ccccc2N1C(=O)COc1ccccc1 (stereo unspecified)
    i	-1.3
CCC1CN(C(=O)N2CCC(C(=O)NCCc3ccc(OC)c(OC)c3)CC2)c2ccccc2O1 (stereo unspecified)
    i	-1.7
CCC1=C(OC(=O)N(CC)CC)N2C(=O)OC(=NCCc3c[nH]c4ccccc34)[C@]2(Cc2ccccc2)[C@H]2C1=CC[C@H]1C(=O)N(C)C(=O)[C@H]12
    i	2.8
Cc1ccc(CNC(=O)CN(C(=O)N2CCN(C)CC2)S(=O)(=O)c2ccc(C)cc2)cc1
    i	-0.74
Nc1nc(SCC(=O)c2cc(F)ccc2F)n[nH]1
    i	-2.1
O=P(OC1CCCCC1)(OC1CCCCC1)C(O)c1ccccc1 (stereo unspecified)
    i	-0.5
COc1ccc(C(=O)Nc2cccc(-c3ccc(N4CCOCC4)nn3)c2)cc1
    i	-0.26
CCOC(=O)c1ccc(NC(=O)CC2C(=O)N(c3ccc(F)cc3)C(=O)N2CCC(C)C)cc1 (stereo unspecified)
    i	-0.38
COc1ccc(S(=O)(=O)N2CCC(C)CC2)cc1N(C)S(=O)(=O)c1ccccc1
    i	-1.7
C=CCn1c(SCc2ccc3c(c2)OCO3)nc2scc(-c3ccco3)c2c1=O
    -6.1*	2*
CCCC(=O)OC(C(=O)Nc1cc(C(F)(F)F)ccc1Cl)c1ccccc1 (stereo unspecified)
    -5.6*	0.77*
CC(=O)C1=C(O)C(=O)N(Cc2cccnc2)C1c1ccc(C)cc1 (stereo unspecified)
    i	0.13
O=C(CSc1ccccc1C(=O)NCc1ccccc1)NC12CC3CC(CC(C3)C1)C2
    i	1.2
CCOC(=O)CCNC(=O)N1CCCC(Cc2ccccc2)(C(=O)OCC)C1 (stereo unspecified)
    i	1.7
S=C(NC1CCCCC1)NN(c1ccccc1)c1ccccc1
    i	-0.01

Next section, starting with the last 2 of the part before.
Below each SMILES: KCNQ2 inh	KCNQ2 inh baseline
CCOC(=O)CCNC(=O)N1CCCC(Cc2ccccc2)(C(=O)OCC)C1 (stereo unspecified)
    i	1.7
S=C(NC1CCCCC1)NN(c1ccccc1)c1ccccc1
    i	-0.01
COc1ccc(S(=O)(=O)Nc2cc(C)nn2-c2ccccc2)cc1
    i	0.12
COC(=O)Cc1c(O)ccn(CCc2ccc(S(N)(=O)=O)cc2)c1=O
    i	-1.1
Cc1oc2c(c1C(=O)N1CCC(C)CC1)C(=O)c1ccccc1C2=O
    i	0.35
COc1ccc2nc(NC(=O)CSc3nnnn3C3CCCCC3)sc2c1
    i	0.71
COc1ccc(OC(C)C(=O)Nc2ccccc2C(F)(F)F)cc1 (stereo unspecified)
    i	0.96
N#Cc1c(-c2ccccc2)cc(-c2ccccc2)nc1Br
    i	-0.01
CC(=O)Nc1ccc(S(=O)(=O)NCCS(=O)(=O)N2CCN(c3ccccc3F)CC2)cc1
    i	-0.2
CC(C)(C)c1ccc(C(=O)N2CCN(C(=O)C3CCCCC3)CC2)cc1
    i	-0.54
O=C(COc1ccc(Cl)cc1)NCc1nnc2c3ccccc3c(-c3ccccc3)nn12
    i	-0.06
NC(=O)CSc1cn(Cc2ccccc2)c2ccccc12
    i	0.16
Cc1ccccc1N(CC(=O)NCCSCc1ccco1)S(C)(=O)=O
    i	-2.4
Cn1c(SCC(=O)Nc2ccccc2)nnc1-c1ccc(NC(=O)CCc2ccccc2)cc1
    i	0.79
COc1cc(N2CCCC2)c(OC)cc1/C=C(/C#N)c1cccc(F)c1
    i	0.49
O=C(Nc1ccccc1)c1c(F)c(F)c(F)c(F)c1F
    i	0.06
C/C=C/c1ccc(OCC(=O)Nc2cc(Cl)ccc2-n2cncn2)c(OC)c1
    i	-0.53

Further compounds:
Below each SMILES: KCNQ2 inh	KCNQ2 inh baseline
Oc1ccc(Br)cc1CNc1cnc2ccccc2c1
    i	0.06
CSCC[C@H](NC(=O)OC(C)(C)C)C(=O)N/N=C/c1cccc2cccnc12
    i	-0.36
CC(NC(=O)c1cnc2ccccc2n1)c1ccccc1 (stereo unspecified)
    i	1.9
O=C(c1ccc(N2CCCS2(=O)=O)cc1)N1CCN(c2ccccc2)CC1
    i	1.9
CCCCOCCCNC(=O)Cc1ccccc1OC
    i	-0.88
CCOc1cccc2sc(NC(=O)CCS(=O)(=O)c3ccccc3)nc12
    i	-0.05
Oc1ccc(Br)cc1/C=N/Nc1ccccn1
    i	-0.21
CCS(=O)(=O)N1Cc2ccccc2CC1C(=O)Nc1nc2ccccc2s1 (stereo unspecified)
    i	-0.76
N#Cc1c(-c2ccc(Cl)cc2)ccn2nc(C3CCCCC3)nc12
    i	1.6
COc1ccc(S(=O)(=O)CCC(=O)NCCc2cccc(C)c2)cc1
    i	3.8
CCC(C)(C(=O)NC1CCCC1)N(C)C(=O)c1ccccn1 (stereo unspecified)
    i	-1.1
Cc1ccc(NC(=S)NCc2cccn2C)cc1
    i	1.1
CCOC(=O)C1(C)Oc2ccc(S(=O)(=O)CC)cc2NC1=O (stereo unspecified)
    i	0.8
O=C(N/C(=C\c1cccnc1)c1nc2ccccc2[nH]1)c1cccc(Br)c1
    i	-0.62
CCn1c(CCNC(=O)c2ccc(OC)cc2)nnc1SCC(=O)Nc1ccccc1F
    i	-0.13

Next part.
Below each SMILES: KCNQ2 inh	KCNQ2 inh baseline
COc1cc(CC(=O)NCC2CCCCC2)cc(OC)c1OC
    i	-0.74
N#Cc1ccccc1NC(=O)c1ccc2c(c1)OCO2
    i	-0.04
O=C(CSCC(=O)OCn1nnc2ccccc2c1=O)Nc1ccc(Cl)cc1
    i	1.2
COc1cccc2c(SCC(=O)N/N=C/c3ccc(O)cc3O)cc(C)nc12
    i	0.53
CSCC(=O)Nc1ccc(F)c(Cl)c1
    i	-0.39
CCOC(=O)c1c(NC(=O)CN2C(=O)NC(C)(c3ccc(Cl)cc3)C2=O)sc(C(=O)NC)c1C (stereo unspecified)
    i	-1.3
Cc1sc2ncnc(N3CCC(C(=O)NNC(=O)COc4cccc(C(F)(F)F)c4)CC3)c2c1C
    i	-0.4
Cc1cccc(C(=O)Oc2ccccc2-c2nnco2)c1
    i	-0.56
Cc1cc(C)n2nc(C(=O)NNC(=O)c3ccc(Cl)cc3)nc2n1
    i	-1.1
CC(C)CC(=O)Nc1ccc(Oc2ccc(NC(=O)CC(C)C)cc2)cc1
    i	-0.62
O=C(NNc1ccccc1F)c1ccccc1
    i	-0.06
CC(C)(C)C1CCC(=NNC(=O)c2ccco2)CC1 (stereo unspecified)
    i	-0.2
O=C(N/N=C/c1ccc(Cl)cc1)Nc1ccccc1
    i	1.1
COc1ccc(C(=O)N/N=C/c2sc(N3CCOCC3)nc2-c2ccccc2)cc1OC
    i	-0.6
O=C(/C=C/c1cccs1)Nc1ccc(N2CCOCC2)c(S(=O)(=O)Nc2cc(Cl)ccc2Cl)c1
    i	-0.09

The results go on.
Compound | KCNQ2 inh | KCNQ2 inh baseline
COc1ccccc1N1CCN(C(=O)c2ccc(Br)s2)CC1 | i | -0.7
Cc1cccc(CN2CCN(CC(=O)NCCCN3CCN(c4ccc(F)cc4)CC3)C2=O)c1 | i | -0.53
COC(=O)c1cc(C(=O)OC)cc(N2C(=O)CC(Sc3nc(C)cc(C)n3)C2=O)c1 (stereo unspecified) | i | 0.33
CN(C)CCCn1c(SCC(=O)N2c3ccccc3Sc3ccccc32)nc2ccccc2c1=O | -6.4* | -0.4*
Cc1ccc(CNS(=O)(=O)c2cc3c(cc2C)N(C)CCO3)cc1 | i | -0.53
c1ccc(N2CCN(Cc3cnc(N4CCOCC4)s3)CC2)cc1 | i | 0.04
CC(=O)c1ccc(N2CCN(C(=S)Nc3ccccc3C(F)(F)F)CC2)cc1 | i | 1.3
COc1ccc(C(=O)N/C(=C\c2ccco2)C(=O)NCCCn2ccnc2)cc1 | i | 2

Exported field by field: part of the list above
mol: Cc1cccc(CN2CCN(CC(=O)NCCCN3CCN(c4ccc(F)cc4)CC3)C2=O)c1
  KCNQ2 inh: i
  KCNQ2 inh baseline: -0.53

mol: COC(=O)c1cc(C(=O)OC)cc(N2C(=O)CC(Sc3nc(C)cc(C)n3)C2=O)c1 (stereo unspecified)
  KCNQ2 inh: i
  KCNQ2 inh baseline: 0.33

(listing goes on)
Compound | KCNQ2 inh | KCNQ2 inh baseline
Nc1nc(CN2CCN(c3ccc(F)cc3)CC2)nc(N2CCCc3ccccc32)n1 | i | 0.01
O=S(=O)(C/C(=C/CO)S(=O)(=O)c1ccccc1)c1ccccc1 | -8* | 3.4*
C=C(CO)C1Cc2cc(C(C)=O)ccc2O1 (stereo unspecified) | i | -2.3
CC(C)(C)c1cccc(C2(O)C(=O)c3ccccc3C2=O)c1O | i | 0.58
COc1ccc(C2C=C(C34CC5CC(CC(C5)C3)C4)NC(=S)N2)cc1 (stereo unspecified) | i | 1.5
c1ccc(C2(CN3CCNC[C@H]3Cc3cccc4ccccc34)CC2)cc1 | i | -1.9
COc1ccccc1NC(=S)NCc1cccnc1 | i | -0.74
COc1ccccc1N1CCN(c2nc3ccccc3nc2C(C#N)C(=O)OC(C)C)CC1 (stereo unspecified) | i | -0.47

(listing goes on)
Compound | KCNQ2 inh | KCNQ2 inh baseline
CCc1nn(-c2cc(Oc3ccccc3)nc(-c3ccccc3)n2)c(N)c1C#N | i | 0.9
Cc1ccc(C)c(N(C)C(=O)COc2cc(=O)n(C)c3ccccc23)c1 | i | -0.62
O=C(CN(Cc1ccccc1C(F)(F)F)C(=O)CNC(=O)c1ccco1)NC1CCCC1 | i | 0.03
CC(=O)c1ccc(Sc2ccc(C(C)=O)cc2)cc1 | i | 1.3
Clc1ccc(Cn2cc(/C=N/n3cnnc3)c3ccccc32)c(Cl)c1 | i | 2.2
Cc1c(NC(=O)CSc2nnc(-c3ccco3)n2-c2ccccc2)c(=O)n(-c2ccccc2)n1C | i | 1.4
CC(=O)NC(C)C12CC3CC(CC(C(=O)O)(C3)C1)C2 (stereo unspecified) | i | -1.4
COc1ccc2[nH]c(=O)c(CN(Cc3cccs3)Cc3nnnn3Cc3ccccc3)cc2c1 | i | 0.27

The list continues.
Compound | KCNQ2 inh | KCNQ2 inh baseline
O=C(COC(=O)c1c2c(nc3ccccc13)/C(=C/c1ccco1)CC2)NC1CCCC1 | i | 0.3
CCC(C)Sc1nnc(CNS(=O)(=O)c2ccc(F)cc2)n1C (stereo unspecified) | i | -1.3
COc1ccc(C2C3=C(N=C4SCC(=O)N42)c2ccccc2CC3)cc1 (stereo unspecified) | i | 0.5
CCOC(=O)N1CCN(C(=S)NC)CC1 | i | 0.8
COc1ccccc1C(=O)NCCC(=O)N1CCCCC1 | i | -1.4
CC(C)c1nnc(NC(=O)c2cccc(NC(=O)C(F)(F)F)c2)s1 | -5.9* | -0.66*
COc1ccc(CN2C(=O)C(C)=C(C)C2OC)cc1 (stereo unspecified) | i | 0.84
O=C(CC(=O)NC1CCCCC1)N/N=C/c1ccccc1F | i | -2

(continued)
Compound | KCNQ2 inh | KCNQ2 inh baseline
Brc1ccc(-c2n(-c3ccccn3)c3ccccc3[n+]2-c2ccccn2)cc1 | i | 0.04
COc1ccc(/C=C/c2nc(-c3ccccc3O)n[nH]2)cc1 | i | 0.55
COc1cccc(-c2cccc(NC(=O)C3CCN(Cc4cnn(C)c4)CC3)c2)c1 | i | 2.1
O=C(CCC(=O)c1ccccc1)Nc1ccccc1OC(F)F | i | -0.08
O=C(Nc1nncs1)c1ccccc1Br | i | 0.92
CC(Cl)C(=O)NC(=O)NC12CC3CC(CC(C3)C1)C2 (stereo unspecified) | i | -0.02
O=C(c1ccc(S(=O)(=O)Nc2ccccc2F)cc1)N1CCC1 | i | -1.7
COCCNS(=O)(=O)c1ccc(OCC(=O)N2CCc3ccccc3C2)c(Cl)c1 | i | -0.09

Next section
Compound | KCNQ2 inh | KCNQ2 inh baseline
O=C(CCS(=O)(=O)c1ccccc1Cl)Nc1ccc(S(=O)(=O)Nc2ncccn2)cc1 | i | 1.2
NCCc1nnc(SCc2ccccc2Cl)o1 | i | 0.05
COc1cccc(C2N(c3cccc(Cl)c3)C(=O)C3CCCN32)c1OC (stereo unspecified) | i | -1.1
COc1ccc2[nH]c(=O)c(C(c3nnnn3CC3CCCO3)N3CCCCC3)cc2c1 (stereo unspecified) | i | -1.3
Cc1ccc(CSCC(=O)N(C)CC(=O)Nc2ccc(Br)cc2C)cc1 | i | 1
Cc1csc(SCC(=O)Nc2nccs2)n1 | i | -2.3
CC[n+]1c(C=C2C=C(C)OC(C)=C2)sc2ccccc21 | i | 0.03
CCCS(=O)(=O)N1CCC(C(=O)NCCCOC)CC1 | i | -0.47

Continued:
Compound | KCNQ2 inh | KCNQ2 inh baseline
O=C(CN1C(=O)NC2(CCCCCCC2)C1=O)N1CCN(C(=O)c2ccco2)CC1 | i | -1.2
O=S(=O)(c1ccc(F)cc1)N1CC2CCCN2c2ccc(C(F)(F)F)cc21 (stereo unspecified) | i | 0.06
C=CCn1c(SC)nc2sc3c(c2c1=O)CCc1ccccc1-3 | i | 0.47
NC(=O)C1CCN(C(=O)/C=C/c2ccccc2[N+](=O)[O-])CC1 | i | -0.02
COc1ccc(NC(=O)C(OC(=O)c2cnccn2)c2ccccc2)cc1Cl (stereo unspecified) | i | 1.5
O=C(O)c1nn(-c2ccccc2-c2n[nH]c(=O)[nH]c2=O)c(=O)[nH]c1=O | i | 0.77
O=C(CSCc1ccccc1)N1CCN(c2ccccc2)CC1 | i | 0.38

Some values from the entries so far:
`CCCC(=O)OC(C(=O)Nc1cc(C(F)(F)F)ccc1Cl)c1ccccc1` (stereo unspecified) @ KCNQ2 inh baseline: 0.77*
`O=C(CSc1ccccc1C(=O)NCc1ccccc1)NC12CC3CC(CC(C3)C1)C2` @ KCNQ2 inh baseline: 1.2
`Cc1c(NC(=O)CSc2nnc(-c3ccco3)n2-c2ccccc2)c(=O)n(-c2ccccc2)n1C` @ KCNQ2 inh baseline: 1.4
`CC(=O)Nc1ccc(S(=O)(=O)NCCS(=O)(=O)N2CCN(c3ccccc3F)CC2)cc1` @ KCNQ2 inh baseline: -0.2
`O=C(CCC(=O)c1ccccc1)Nc1ccccc1OC(F)F` @ KCNQ2 inh baseline: -0.08
